CBX7 AlphaScr: CBX7 chromodomain binding inhibitors, primary screen, biochemical, AlphaScreen; AlphaScreen His6-CBX7 / biotin-H3K27me3 peptide binding; active compounds read low; normalised signal (fraction of DMSO) (no concentration beside the values); 66,000 tested, 1.1% active; in the data active = normalised signal below about 0.5;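 also: 100 nL library stock added to about 20 µL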
Target sequence (O95931 whole entry, looked up): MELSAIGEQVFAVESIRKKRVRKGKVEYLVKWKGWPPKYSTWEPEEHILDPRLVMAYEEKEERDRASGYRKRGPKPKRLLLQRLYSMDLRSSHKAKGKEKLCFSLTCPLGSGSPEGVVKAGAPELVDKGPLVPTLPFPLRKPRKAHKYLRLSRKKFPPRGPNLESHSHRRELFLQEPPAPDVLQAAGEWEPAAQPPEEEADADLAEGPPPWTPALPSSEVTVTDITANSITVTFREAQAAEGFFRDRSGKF
CBX7 AlphaScr z-score: further read-out of CBX7 AlphaScr, marked with its call; z-score; measured here: z-score of CBX7 signal; some inactives read as strong as hits; reference of the scale not given here;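 same signal on another scale; lower means less binding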
Numbers without * were called inactive; & = joins results of further samples. Some of the compounds tested, so the mix of outcomes need not match the whole.

no. | canonical_smiles | CBX7 AlphaScr | CBX7 AlphaScr z-score
1 | CCC(C)NC(=O)C1CCCN(C(=O)c2cnn(-c3ccccc3)c2-n2cccc2)C1 (stereo not given) | 1.2 | 1.8
2 | Cc1oc(-c2ccccc2F)nc1CN1CCC(C(=O)NCCCOC(C)C)CC1 | 1.2 | 2.6
3 | CCCCOc1ccc(Cc2nc3ccccc3[nH]c2=O)cc1 | 1.1 | 3.6
4 | Cc1ccc(C)n1-c1cc(C(=O)O)ccc1Cl | 1 | 0.12
5 | Cc1[nH]c2ccccc2c1CCn1c(N)cc(=O)[nH]c1=O | 1 | 0.14
6 | COc1ccccc1-c1coc2c(CN3CCCCC3C)c(O)ccc2c1=O (stereo not given) | 1.1 | 1.4
7 | Cc1ccc(NC(=O)c2oc3ccc(S(=O)(=O)N4CCCCC4)cc3c2C)cc1C | 1 | 0.71
8 | COc1ccc(Nc2ncc(C(=O)Nc3cccc(Cl)c3)c3ccccc23)cc1 | 0.2* | -13*
9 | O=C(NCC1COc2ccccc2O1)C1CCN(S(=O)(=O)c2cccc3nonc23)CC1 (stereo not given) | 1 | -0.0015
10 | CCC1=Nc2cc(C(=O)NCc3cccnc3)ccc2Sc2ccc(Br)cc21 | 0.91 | -4.7
11 | CC(=O)c1ccc(NC(=O)CSc2nnc(-c3cccnc3)n2Cc2ccccc2)cc1 | 1.1 | 1.5
12 | Cc1ccc(N2C(=O)C(N3C(=O)c4ccccc4C3=O)C2c2ccccc2Br)cc1 (stereo not given) | 0.9 | -2.8
13 | CCC(=O)N1CCc2cc(S(=O)(=O)Nc3ccc(C)c(C)c3)ccc21 | 0.91 | -0.35
14 | Cc1ccc(-c2nc3cc(Cl)ccc3o2)cc1N | 1.1 | 1.7
15 | NC(=O)C1CCN(C(=O)c2cc3ccccn3n2)CC1 | 1 | -0.052
16 | CC(C)(c1ccccc1)c1ccc(OCC(=O)NCCc2nc3ccccc3[nH]2)cc1 | 0.97 | -0.62
17 | O=C(NCCCN1CCCC1)C1CCN(C(=O)c2cc3sccc3n2Cc2ccc(F)cc2)CC1 | 0.97 | -1
18 | Cc1oc(-c2ccc(Cl)cc2)nc1CN1CCC(C(=O)NCCCN2CCCC2=O)CC1 | 1.1 | 0.79
19 | Cc1cccc2c1-c1sc(C(=O)N3CCC(C(N)=O)CC3)cc1CO2 | 1.1 | 2.1
20 | Cc1cccc(CCNC(=O)c2cccc(NC3=NC4CS(=O)(=O)CC4S3)c2)c1 (stereo not given) | 1.1 | 1.4
21 | O=C(Nc1cccnc1)C1c2ccccc2C(=O)N2CCc3ccccc3C12 (stereo not given) | 0.85 | -0.21
22 | CN(C)c1ccc(-c2nc3cnccn3c2NC2CCCC2)cc1 | 1.2 | 2.1
23 | O=C1CCc2cc(S(=O)(=O)NC(C(=O)NCC3(c4ccccc4)CCCC3)c3ccccc3)ccc2N1 (stereo not given) | 0.98 | -0.1
24 | CCC1CCCCN1CCCNC(=O)CCn1nc(-c2ccc(Cl)cc2)ccc1=O (stereo not given) | 1.1 | 1.4
25 | CCN(CC)c1cc(C)c2cc(NC(=O)c3ccc(F)cc3)ccc2n1 | 1.2 | 2.1
26 | O=C(Cn1cc(S(=O)(=O)c2ccccc2)c(=O)c2ccccc21)Nc1cccc(Cl)c1 | 0.96 | -1.2
27 | CCOc1ccc2c(c1)c1c3n2CCN(C)C3=NCC1 | 1 | 0.82
28 | O=C(CN1CCN(Cc2ccccc2)C1=O)NC1CCCCCCC1 | 0.96 | -0.8
29 | O=C(Nc1ccc(F)cc1F)c1cnc(N2CCN(c3ncccn3)CC2)c2ccccc12 | 1.2 | 1.1
30 | NC(=O)Cn1c(=O)n(CCC(=O)NCc2ccc3c(c2)OCO3)c(=O)c2sccc21 | 0.92 | -1.3
31 | O=C(NCCc1ccc(Cl)cc1)c1cc(=O)[nH]c2ccc(S(=O)(=O)N3CCCCC3)cc12 | 1 | 0.53
32 | Cc1ccc(NC2c3ccccc3C(=O)N2c2ccccc2C)cc1C (stereo not given) | 0.91 | -3
33 | O=C(Nc1ccc2oc(-c3ccncc3)nc2c1)c1cc2ccccc2o1 | 0.97 | -0.67
34 | COc1cccc(CNC(=O)CCc2cn(Cc3ccccc3)c3ccccc23)c1 | 0.99 | -0.2
35 | CCOC(=O)C1CCN(C(=O)COc2ccc3c(c2)C(=O)CC(C)(C)O3)CC1 | 1 | 0.02
36 | COc1ccccc1CNC(=O)c1ccc2nc(N3CCC(C)CC3)sc2c1 | 1 | 0.79
37 | CCCCCCOc1ccc(N2C(=O)CC(N3CCC(C(N)=O)(N4CCCCC4)CC3)C2=O)cc1 (stereo not given) | 1 | 0.029
38 | CCCCOc1ccc(C(O)(CCC)C(CN2CCN(c3ccccc3OC)CC2)c2ccccc2)cc1 (stereo not given) | 0.77 | -2.5
39 | CCOc1ccccc1CNC(=O)c1ccc2nc(N3CCOCC3)sc2c1 | 1 | 0.84
40 | CCCCC(=O)Nc1nc2c(s1)CCc1ccccc1-2 | 1.1 | 2.2

Some of the entries so far, as labelled records.
22: CN(C)c1ccc(-c2nc3cnccn3c2NC2CCCC2)cc1
  CBX7 AlphaScr: 1.2
  CBX7 AlphaScr z-score: 2.1

30: NC(=O)Cn1c(=O)n(CCC(=O)NCc2ccc3c(c2)OCO3)c(=O)c2sccc21
  CBX7 AlphaScr: 0.92
  CBX7 AlphaScr z-score: -1.3

29: O=C(Nc1ccc(F)cc1F)c1cnc(N2CCN(c3ncccn3)CC2)c2ccccc12
  CBX7 AlphaScr: 1.2
  CBX7 AlphaScr z-score: 1.1

28: O=C(CN1CCN(Cc2ccccc2)C1=O)NC1CCCCCCC1
  CBX7 AlphaScr: 0.96
  CBX7 AlphaScr z-score: -0.8

Remaining list, next part.
no. | canonical_smiles | CBX7 AlphaScr | CBX7 AlphaScr z-score
41 | O=C(Cn1ccc2ccccc2c1=O)NCCC(=O)Nc1ccc2c(c1)OCO2 | 1.1 | 2.9
42 | CC1=Nc2cc(C(=O)NCCN(C)C)ccc2Sc2ccc(Br)cc21 | 1.1 | 2.5
43 | CCc1ccc(NC(=O)N(C2CCCCC2)C(C)c2cccnc2)cc1 (stereo not given) | 1 | 0.57
44 | CC(C)N(Cc1nc(-c2ccc(Cl)cc2)no1)C(=O)C(c1ccccc1)c1ccccc1 | 0.88 | -1.2
45 | Cc1ccccc1CN1C(=O)C(O)(CC(=O)c2cccnc2)c2ccccc21 (stereo not given) | 0.69 | -3
46 | O=C(CC(C(=O)N1CCc2ccccc21)n1ccnc1)NC1CCCCCCC1 (stereo not given) | 0.92 | -1.8
47 | COc1ccc(NC(=O)c2ccc3c(=O)n4c(nc3c2)CCCCC4)cc1Cl | 1 | 0.025
48 | Fc1ccc(Nc2nc(-c3cccnc3)nc3ccccc23)cc1F | 1 | 0.76
49 | Cc1cccc(CN2C(=O)CSc3ccc(C(=O)NCCC4=CCCCC4)cc32)c1 | 1 | -0.0078
50 | COc1ccccc1C(=O)N(Cc1nc(-c2ccccc2)no1)C(C)C | 0.99 | -0.27
51 | O=C(c1ccccc1)N1CCC(O)(c2ccccc2)[C@H]2CCCC[C@H]21 (stereo not given in full) | 1&1 | 0.11&0.14
52 | CN(C)CCNC(=O)c1ccc2c(c1)N(Cc1cccc(Cl)c1)C(=O)c1ccccc1S2=O (stereo not given) | 1.2 | 1.2
53 | Cc1ccc2c(c1)N(CC(=O)NCC1COc3ccccc3O1)C(=O)CO2 (stereo not given) | 1.1 | 0.57
54 | Cc1ccc(CNC(=O)c2c[nH]n3c(=O)c(Cc4ccc(F)cc4Cl)c(C)nc23)cc1 | 1.1 | 1.8
55 | COc1ccc(CNC(=O)CCc2nc(-c3cccs3)no2)c(OC)c1 | 1 | 0.0021
56 | CCN1C(=O)c2ccccc2Sc2ccc(C(=O)NCCN3C(C)CCCC3C)cc21 (stereo not given) | 1 | 0.39
57 | Cc1nc2c(C(=O)NC3CCCCC3C)c[nH]n2c(=O)c1Cc1ccccc1F (stereo not given) | 1 | 0.45
58 | O=C(NCCc1nc2ccccc2n1Cc1c(F)cccc1Cl)c1ccccc1 | 0.95 | -0.21
59 | Cc1ccc(NC2=NS(=O)(=O)c3ccccc32)c(C)c1 | 0.97 | -0.78
60 | CCOc1ccccc1NC(=O)CCNS(=O)(=O)c1ccc2c(c1)CCC(=O)N2 | 1.1 | 2

In the list so far, these contain a thiophene ring, fused or not.
no. | canonical_smiles | CBX7 AlphaScr | CBX7 AlphaScr z-score
17 | O=C(NCCCN1CCCC1)C1CCN(C(=O)c2cc3sccc3n2Cc2ccc(F)cc2)CC1 | 0.97 | -1
19 | Cc1cccc2c1-c1sc(C(=O)N3CCC(C(N)=O)CC3)cc1CO2 | 1.1 | 2.1
30 | NC(=O)Cn1c(=O)n(CCC(=O)NCc2ccc3c(c2)OCO3)c(=O)c2sccc21 | 0.92 | -1.3
55 | COc1ccc(CNC(=O)CCc2nc(-c3cccs3)no2)c(OC)c1 | 1 | 0.0021

Following part
nr	mol	CBX7 AlphaScr	CBX7 AlphaScr z-score
61	Cc1nnc(NC(=O)c2ccc(S(=O)(=O)N(C)Cc3ccccc3)cc2)o1	0.0081*	-26*
62	Cc1ccc(C(C)C)c(OCC(O)CN2CCCCC2)c1 (stereo not given)	1.5	4.2
63	COc1ccc2c(c1)-c1nc(NC(=O)c3cccc(F)c3)sc1CC2	1.1	2.1
64	CCOc1ccccc1C(=O)Nc1c(-c2cccs2)nc2cc(C)ccn12	0.68	-9.1
65	FC(F)(F)c1cc(-c2ccccc2)nc(-n2ccnc2)n1	1	0.74
66	CC(c1ccccc1)N1CC(C(=O)N2CCN(c3ccc(F)cc3)CC2)CC1=O (stereo not given)	0.97	-1.6
67	Cc1ccc(-n2c(C)nc3c(cnn3-c3ccccc3C)c2=O)cc1F	0.92	-1.3
68	CCOc1ccc2nc(N3CCC(C(=O)NC)CC3)sc2c1	1.1	0.11
69	CN(C)S(=O)(=O)c1ccc(C(=O)Nc2ccc(-c3nc4ccccc4[nH]3)cc2)cc1	1.2	1.7
70	O=c1cc(Cc2nnc(SCc3cccc(F)c3)n2-c2ccc(Cl)cc2)[nH]c(=O)[nH]1	1.1	2.2
71	COc1ccccc1Nc1c2c(nc3ccccc13)CCC2	1.1	2.4
72	COc1ccc(C2CC(c3ccc(Br)cc3)Nc3ncnn32)c(OC)c1 (stereo not given)	0.96	-1.5
73	COc1ccc(NC(=O)c2cnn(-c3ccc(C)c(C)c3)c2C2CCNCC2)cc1	0.93	-1.3
74	COc1ccc(CNC(=O)C2CC(=O)N(c3ccc(OCc4ccc(F)cc4)cc3)C2)cc1 (stereo not given)	1.1	1.9
75	CC1CCN(C(=O)C2(S(=O)(=O)c3ccc(Cl)cc3)CC2)CC1	1.2	2.1
76	Cn1cc(CCCC(=O)NCc2cccs2)c2ccccc21	0.62	-0.38
77	Cc1[nH]c2ccccc2c(=O)c1CN1CCN(C)CC1	1	0.84
78	CCOc1ccc(-n2nc(C(=O)Nc3cccc(OC)c3)c3ccccc3c2=O)cc1	1.1	1.1
79	Cc1ccc(NC(=O)Cn2c(SCc3cccc(F)c3)nc3ccncc32)c(Cl)c1	0.95	-1.5
80	O=C(NCc1cc2cc(Cl)ccc2[nH]1)c1cccc(COc2ccc(Cl)cc2)c1	1.1	1.4
81	CN(C)S(=O)(=O)c1ccc(C(=O)Nc2nnc(C3CC3)o2)cc1	0.38*	-14*
82	O=C(NCC1COc2ccccc2O1)c1cnc(N2CCN(c3ncccn3)CC2)c2ccccc12 (stereo not given)	1	0.065
83	c1ccc2c(NCc3ccc4c(c3)OCO4)nnc(Cc3ccncc3)c2c1	1	1.3
84	CCOC(=O)N1CCC(Nc2c(NCc3ccccc3OC)c(=O)c2=O)CC1	1.1	2
85	CCOC(=O)CNS(=O)(=O)c1cc(-c2nnc(Nc3ccccc3C)c3ccccc23)ccc1C	0.7	-5.6
86	CCN1C(=O)c2ccccc2Sc2ccc(C(=O)NCCCN3CCCC3)cc21	1.1	3.8
87	CCCCNC(=O)c1ccc(CNc2c(N3CCC(C(=O)OCC)CC3)c(=O)c2=O)cc1	0.98	-0.58
88	Cc1cccc(-c2nc(Nc3ccc(C(=O)O)cc3)c3ccccc3n2)c1	1.5	5.9
89	Cc1nc2c(-c3ccccc3)c(C)nn2c(C)c1CCC(=O)N1CCN(c2ccccn2)CC1	1	-0.038
90	Cn1c(=O)cc(OCC(=O)Nc2cccc(Cl)c2)c2ccccc21	0.96	-0.71
91	Cc1cc(NC(=O)c2ccccc2-c2ccccc2C(=O)O)no1	1.1	0.06
92	O=C(Cn1nc(-c2ccc(Cl)cc2)ccc1=O)NCc1ccc2c(c1)OCO2	0.97	-1.7
93	COc1ccc(C(=O)Nc2nc(-c3ccc(S(=O)(=O)N4CCOCC4)cc3)cs2)cc1	1	0.031
94	O=C(Nc1nccs1)C1(S(=O)(=O)c2ccc(Cl)cc2)CC1	1	0.8
95	O=C(Nc1ccc(S(=O)(=O)Nc2ncccn2)cc1)c1cc(-c2cccs2)nc2ccccc12	0.95	-1.1
96	CC1CCC(NC(=O)C2CCN(C(=O)c3sccc3-n3cccc3)CC2)CC1 (stereo not given)	0.97	-0.62
97	CCOc1ccc(CCNC(=O)Cn2nnc(-c3ccccc3Cl)n2)cc1OCC	0.99	-0.11
98	CC1CCc2cc(F)ccc2N1C(=O)CCCN1C(=O)c2cccnc2C1=O (stereo not given)	0.47*	-5.1*
99	CCCCOc1ccc(C(=O)N(Cc2ccc(OC)cc2)C2CCS(=O)(=O)C2)cc1 (stereo not given)	0.91	-0.089
100	Cc1nnc(SCC(=O)Nc2ccc(Cl)cc2Cl)c2ccccc12	0.79	-0.83
101	Cc1ccc(C)c2[nH]c(=O)c(CCNC(=O)CC3CCCCC3)cc12	1.1	0.18
102	O=C(O)CCc1nn2c(nc3ccccc32)[nH]c1=O	0.91	-0.92
103	O=C(NCc1ccc2c(c1)OCO2)C(=O)NCC(c1ccccc1)c1ccccc1	0.95	-1.6
104	Cc1ccc(CCNC(=O)C2CCCN(Cc3nc(-c4cccc(Cl)c4)oc3C)C2)cc1 (stereo not given)	0.97	-0.73

Screening results: PubChem, several laboratories
